# From PubChem
# NS1 function inh = inhibitors of influenza NS1 protein function. S. cerevisiae slowed by influenza A NS1, growth recovery by OD600. Potency, µM (highest dose often 46.1 µM), for the others: at the highest dose activity, positive = more growth. 0.4% of 270,000 active; active means well fitted rising curve with a large enough effect; inconclusive means small, poorly fitted or top-dose-only effect; inactive means no such curve, though single readings can be large or run the other way; note: nearly all actives have a fitted effect of over 50% in size
#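 Recovery from NS1-induced slow growth read by OD600 in budding yeast switched to galactose assay medium (pH 6.0, -URA) at 1:100 dilution. Compound 23 nl per well; the matching strain lacking NS1 serves as control.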
# Cruzain Triton = blocks cruzain activity in presence of Triton detergent; purified cruzain, Z-FR-AMC fluorescence, 0.01% Triton; Potency, µM, for inactives: max response, negative = inhibition, usual class: inhibitors; 0.43% of 200,000 active;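 note: plate controls were neutral wells for no effect and buffer without enzyme for full effect; nearly all actives have a fitted effect of over 40% in size; top concentration of the series not given in the record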
# Target sequence (P25779 123-467 limits assumed): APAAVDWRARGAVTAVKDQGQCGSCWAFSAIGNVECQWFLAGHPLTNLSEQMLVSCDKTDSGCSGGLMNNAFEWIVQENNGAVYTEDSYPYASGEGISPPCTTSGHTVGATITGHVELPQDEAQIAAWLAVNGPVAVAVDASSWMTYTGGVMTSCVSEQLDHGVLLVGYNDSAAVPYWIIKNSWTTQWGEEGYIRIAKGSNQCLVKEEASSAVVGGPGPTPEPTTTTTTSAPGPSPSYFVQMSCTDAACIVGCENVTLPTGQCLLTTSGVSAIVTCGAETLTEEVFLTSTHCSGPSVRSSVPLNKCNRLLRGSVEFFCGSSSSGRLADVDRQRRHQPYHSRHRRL
#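 Purified cruzain (1.5 nM final) was preincubated with compounds for 15 min at room temperature in 100 mM sodium acetate pH 5.5, 5 mM DTT, 0.01% Triton X-100. Reaction started with 2 uM Z-FR-AMC; AMC fluorescence change over 60 s gave activity.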
# 2A StopGo = lowers the luciferase signal of an FMDV 2A StopGo reporter; 1.2% of 410,000 active; AID 1159524; human cells with a luciferase reporter of 2A StopGo recoding; control for the full effect not named in the record; Potency, µM (series often up to 57.9 µM), without a hit: top-dose signal change, negative = less light; active = well fitted falling curve with a large enough effect; inconclusive = small, poorly fitted or top-dose-only effect; inactive = no such curve, though single readings can be large or run the other way; tested in HEK293T cells; note: % is set by controls: 0 for no effect and ±100 for the full control effect; nearly all actives have a fitted effect of over 45% in size; luciferase light after 4 h
# Marburg entry inh = inhibitors of Marburg virus binding or cell entry. 1.8% of 300,000 active. AID 540276. Potency, µM (top dose mostly 37.8 µM), inactives show at the highest dose activity change, negative = inhibition, hits mostly inhibitors. Marburg virus pseudotyped entry inhibition, cell reporter; control for the full effect not named in the record; about a third of the inactives were read at about 46 µM; active = well fitted inhibition curve with a large enough effect; inconclusive = small, poorly fitted or top-dose-only effect, or effect the other way; inactive = flat fitted curve, though single readings scatter; tested in HEK293 cells; about a fifth of its hits are not listed in these tables; note: % is set by controls: 0 for no effect and ±100 for the full control effect; luciferase read-out
# RE007 growth inh = less growth of the S. pombe RE007 Vpr strain | Potency, µM (top dose mostly 92.2 µM), for inactives: top-dose activity change, negative = less growth | 0.21% of 360,000 active | S. pombe RE007 Vpr strain, BacTiter-Glo ATP luminescence, 24 h; control for the full effect not named in the record; active = well fitted falling curve with a large enough effect; inconclusive = small, poorly fitted or top-dose-only effect; inactive = no such curve, though single readings can be large or run the other way;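 note: % is set by controls: 0 for no effect and ±100 for the full control effect; nearly all actives have a fitted effect of over 50% in size; the assay follows cell death caused by Vpr and the record does not say whether a fall means rescue or toxicity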
#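 Fission yeast strain RE007, carrying one chromosomally integrated HIV-1 vpr copy, was seeded at OD 0.01 in PMG+AL medium with 23 nL pinned compound. After 24 h at 30 °C and 99% humidity, viability was read by BacTiter-Glo luminescence.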
# Cruzain inh noDet = cruzain (T. cruzi) inhibition without detergent; P25779; purified cruzain, Z-FR-AMC fluorescence, no detergent; Potency, µM, for the others: max response, negative = inhibition, usual class: inhibitors; 2.3% of 200,000 active;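 note: plate controls were enzyme without inhibitor for no effect and buffer without enzyme for full effect; nearly all actives have a fitted effect of over 40% in size; top concentration of the series not given in the record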
#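 Detergent-free condition (0.00005% Triton X-100) in acetate buffer pH 5.5 with DTT. 1.5 nM enzyme and compound were pre-mixed 15 min, then 2 uM Z-FR-AMC substrate added; reaction progress from fluorescence change between first and third reads (60 s).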
# SARS PLP yeast = blocks SARS-CoV papain-like protease in a yeast assay | S. cerevisiae expressing SARS-CoV PLpro, growth rescue; control for the full effect not named in the record | Potency, µM (doses to about 32.9 µM), for inactives: at the top dose activity, positive = growth rescue | 0.19% of 330,000 active | AID 485353; active means well fitted rising curve with a large enough effect; inconclusive means small, poorly fitted or top-dose-only effect; inactive means no such curve, though single readings can be large or run the other way; note: 0% is about no effect; nearly all actives have a fitted effect of over 55% in size; growth read by luminescence after 48 h
# LASV entry inh = Lassa virus entry inhibition; Lassa virus pseudotype entry inhibition, cell reporter; control for the full effect not named in the record; Potency, µM (titrated, usually from 37.9 µM), without a hit: at the top dose activity change, negative = inhibition, hits mostly inhibitors; 1.2% of 300,000 active; active means well fitted inhibition curve with a large enough effect; inconclusive means small, poorly fitted or top-dose-only effect, or effect the other way; inactive means flat fitted curve, though single readings scatter; tested in HEK293 cells; note: % is set by controls: 0 for no effect and ±100 for the full control effect; nearly all actives have a fitted effect of over 50% in size; luciferase read-out
# The depositor's hits bear a star; ? = inconclusive; . = not tested or not shown; & = joins results of further samples; [ ] = remark or other dose. Unless noted, calls come from the whole dose curve; as a rule, active = well fitted curve in the direction sought with a large enough effect; inconclusive = small, poorly fitted or top-dose-only effect, or another doubt; inactive = no such curve, though single readings can be large; an effect the other way counts as inactive or inconclusive. Potency is the fitted concentration of half-maximal effect.
canonical_smiles | NS1 function inh | Cruzain Triton | 2A StopGo | Marburg entry inh | RE007 growth inh | Cruzain inh noDet | SARS PLP yeast | LASV entry inh
COc1ccc2c(c1)c(CCN1CCOCC1)c(C)n2C(=O)c1cccc(Cl)c1Cl | . | -8.3% | . | ? | . | ? | . | 23.1µM*
CC[N+](CC)(CC(=O)Nc1c(C)cccc1C)Cc1ccccc1 | . | 0.6% | -18.8% | . | 0.0%[18.4 µM] | -6.4% | . | .
CCOc1ccccc1N(CC)C(=O)c1noc2c1COc1ccc(C)cc1-2 | . | -0.7% | -9.2% | . | . | 1.1% | . | -1.1%[46.1 µM]
CCNS(=O)(=O)c1ccc(CCC(=O)N2CCN(Cc3ccccc3)CC2)cc1 | -1.0% | . | -22.2% | . | 1.5% | . | -4.2% | .
O=C(COC(=O)Cc1ccc(Cl)cc1)Nc1cc(S(=O)(=O)N2CCOCC2)ccc1N1CCCC1 | -6.3% | -6.1% | -8.6% | -4.6% | 3.6% | ? | -5.4% | 1.2%
CSc1ccc(/C=N/Nc2nc(C)cc(=O)[nH]2)cc1 | -2.9% | . | 31.4%[activator] | -4.1%[46.1 µM] | 16.1% | . | -5.4% | 0.4%
CCCOC(=O)Cn1cnc2scc(-c3ccc(OC)cc3)c2c1=O | -17.3% | . | -10.9% | . | -5.0% | . | -3.9% | .
O=C(O)c1ccc(S(=O)(=O)c2ccc3c(c2)C(=O)N(NC(=O)c2ccncc2)C3=O)cc1 | -4.3% | . | 0.0% | 4.2%[46.1 µM] | 14.1% | . | 0.6% | 1.6%
COc1ccccc1NC(=O)c1c(O)c2ccccc2[nH]c1=O | 0.6% | . | 2.0% | . | -6.8% | . | 0.6% | .
CC1=CC(=O)C2=C(C)CC[C@@H]3[C@H](OC(=O)[C@H]3C)[C@@H]12 | 9.8% | . | -5.0% | . | 11.0% | . | -5.6% | .
COCCNC(=S)N(CCc1c(C)[nH]c2ccc(C)cc12)Cc1cccnc1 | 2.9% | . | -16.7% | . | 3.7% | . | 9.8% | .
COc1ccccc1NC(C)=[N+](C)CCNS(=O)(=O)c1ccc(Cl)cc1 | -6.6% | . | -6.8% | . | -3.2% | . | -0.8% | .
CC1=CC(C)(C)N2C(=O)C(=Nc3ccc(O)cc3)c3cccc1c32 | -48.2% | . | -14.6% | . | -16.5% | . | -1.0% | .
CO/N=C(\N)c1ccc([N+](=O)[O-])cc1 | ? | -1.8% | 5.8% | 15.8% | 5.9% | 2.1% | 12.2% | -11.9%
Nc1nc(SCC(=O)NCC2CCCO2)[nH]c(=O)c1NC(=O)c1ccco1 (stereo not given) | 14.9% | . | -7.7% | . | 2.5% | . | 1.2% | .
c1ccc(Oc2nc(N3CCOCC3)nc(N3CCOCC3)n2)cc1 | 7.8% | 5.7% | 12.6% | ? | -8.6% | 3.8% | -0.4% | ?
N#Cc1cnc(N)c(Br)c1 | . | . | -14.3% | -16.8%[46.1 µM] | 17.4% | . | 2.0% | ?
O=[N+]([O-])c1ccc(Nc2ccccn2)c([N+](=O)[O-])c1 | -1.7% | . | -13.6% | -0.9%[46.1 µM] | -12.0% | . | 0.8% | -0.1%[46.1 µM]
CN(Cc1ccccc1)S(=O)(=O)c1ccc(Cl)c(C(=O)N2CCC2)c1 | . | . | -13.8% | 17.6% | -1.4% | . | -5.1% | 5.1%
CC(C)(C)/C(O)=C/c1nc2ccccc2[nH]c1=O | 6.3% | 1.0% | 9.2% | 13.1% | -1.9% | 7.6% | 0.6% | -2.9%
CCNC(=S)Nc1cc(C)ccn1 | 1.8% | -1.0% | 30.3%[activator] | 3.5% | -13.3% | 0.7% | 27.7% | ?
COc1ccc(Cn2ccc3nc(C)c(C(=O)N4CCN(c5ccc(OC)cc5)CC4)cc3c2=O)cc1 | . | -5.2% | -14.3% | . | . | ? | . | ?
CC(=O)c1ccc(NC(=O)c2nc3ccccc3n(C)c2=O)cc1 | . | 2.3% | 11.1% | . | . | -4.4% | . | 27.6%[46.1 µM]
COc1ccc(CNS(=O)(=O)c2ccc(OC)cc2)cc1 | -5.2% | -1.6% | -8.0% | 8.9%&8.9% | -10.6% | -3.1% | -1.1% | 7.9%
CCCc1[nH]nc2c1C(c1ccc(OCCN3CCOCC3)c(OC)c1)C(C#N)=C(N)O2 (stereo not given) | -2.5% | -4.8% | -28.8% | 0.1% | -4.7% | -4.6% | -11.5% | ?
CCOC(=O)C(Cc1ccccc1)(Cc1ccccc1)C(C)=O | -37.0% | . | -30.0% | ? | -11.7% | . | -3.7% | ?
O=C(COC(=O)c1ccc(Br)cc1)Nc1ccccc1Br | . | . | -9.3% | -6.6% | 20.2% | . | -6.2% | ?
CC(NC(=O)C(=O)Nc1c2c(nn1-c1ccc(F)cc1)CSC2)c1ccccc1 (stereo not given) | . | 0.0% | -8.7% | . | . | -15.0% | . | -25.3%[46.1 µM]
Cc1ccc(N(C)C(=O)Cn2cnc3onc(-c4ccc(F)cc4)c3c2=O)cc1C | . | -10.8% | 0.0% | . | . | 27.3% | . | -8.2%[46.1 µM]
NC(=O)NC(=O)COC(=O)c1ccc(Cl)c(S(=O)(=O)N(Cc2ccccc2)c2ccc(Cl)cc2)c1 | 11.2µM* | -4.4% | ? | ? | 13.9% | -15.6% | -20.3% | ?
Cc1nn(CC(=O)Nc2ccc(S(N)(=O)=O)cc2)c(=O)c2ccccc12 | 0.1% | . | -5.6% | ? | 10.9% | . | -0.2% | -20.1%
COc1ccc(C(=O)Nc2cc3c4c(c2)CC(=O)N4CCC3)c(OC)c1 | . | . | 80.1%[activator] | 8.6% | -4.5% | . | -6.3% | ?
CN(C)c1ccc(/C=C/C=C2/C(=O)NC(=O)N(c3ccccc3)C2=O)cc1 | -2.5% | . | 20µM* | ? | -20.9% | . | -0.1% | ?
CC(=O)c1cccc(NC(=O)c2csc(-n3nc(C)cc3C(F)(F)F)n2)c1 | 20.5% | 4.8% | -1.4% | -8.4% | 2.1% | 22.6% | -2.7% | -0.4%
O=C1OCCN1C(=O)[C@H]1[C@H](c2ccc([N+](=O)[O-])cc2)C(c2ccccc2)=NN1c1ccccc1 | . | 3.9% | 0.0% | . | -15.8% | ? | 15.1% | .
Nc1nc(NC(=O)CCCC(=O)O)nn1-c1ccccc1 | 3.6% | 4.5% | -4.4% | 1.2% | 0.6% | 10.1% | 27.7% | 5.3%
C/C=C/C(=O)OCC(=O)Nc1ccc(C)c(S(=O)(=O)N(C)C)c1 | . | . | 30.2%[activator] | ? | -18.3% | . | -6.8% | ?
COc1ccc2c(C(=O)c3ccc(C)cc3)n(CCC(N)=O)[n+]([O-])c2c1 | 1.2% | . | -11.8% | . | 4.1% | . | 0.1% | .
N#Cc1cc(-c2ccccc2)nnc1Oc1ccccc1Cl | 10.4% | -4.6% | ? | ? | -20.1% | -0.9% | -2.4% | ?
COc1cc(C(=O)O)c([N+](=O)[O-])c(OC)c1OC | -11.4%&2.3% | -0.2% | -20.4% | . | 2.2% | 10.3% | -0.3% | .
CCOc1ccc(S(=O)(=O)NCc2ccncc2)cc1 | 8.6% | 0.9% | -13.6% | ? | 0.4% | 4.3% | -12.5% | ?
CCn1cc(C(=O)N2CCC3(CC2)OCCO3)c(=O)c2cc(S(=O)(=O)N3CCCC3)ccc21 | 0.8% | -3.3% | 18.3% | -11.4% | 8.3% | -0.9% | 19.0% | 4.2%
O=C(COC(=O)c1ccc([N+](=O)[O-])o1)c1ccccc1 | -20.7% | -1.9% | -10.5% | 7.2% | ? | -9.1% | 9.7% | 3.6%
COc1ccc(CCNC(=O)Cn2cnc3c(nnn3Cc3ccc(C)cc3)c2=O)cc1OC | -4.9% | 1.5% | . | ? | 1.2% | 27.0% | -9.1% | 4.9%
COc1ccc(CCNC(=O)CCc2c(C)nc3c(c(C)nn3-c3ccc(C)c(C)c3)c2C)c(OC)c1OC | . | -0.1% | -22.5% | ? | . | 0.3% | . | -8.5%[46.1 µM]
O=C(COc1ccccc1)NCc1ccc2c(c1)CCN2C(=O)c1ccc(F)cc1 | . | 0.5% | -22.7% | . | . | 7.4% | . | ?
COc1cccc(N2C(=O)c3ccncc3C2=O)c1 | ? | -5.8% | -1.7% | 24.5% | -13.3% | -6.0% | -2.3% | 2.0%
COc1ccc(C(=O)OCC(=O)NCC2CCCO2)cc1 (stereo not given) | . | . | -19.0% | -5.7%[46.1 µM] | -11.7% | . | 2.7% | -13.7%
CCOc1ccc(NC(=O)Cn2c(=O)oc3ccccc32)cc1 | -6.8% | 0.2% | -9.8% | 9.2% | 43.4% | -1.6% | 2.7% | 6.3%
Cc1ccn2c(C(=O)CSc3ccc(Cl)cc3)c(C)nc2c1 | 2.8% | -3.4% | -26.0% | -4.5% | -3.4% | 6.5% | -2.3% | 4.1%
Cc1ccc(Cn2c(SC3CCOC3=O)nc3ccccc3c2=O)cc1 (stereo not given) | 19.7% | -3.6% | -5.3% | -8.5% | 3.2% | -0.9% | 14.4% | ?
Cc1cccc(C)c1NC(=O)C1CCCN1S(=O)(=O)c1ccc(-c2ccc(=O)[nH]n2)s1 (stereo not given) | 13.4% | . | -10.8% | ? | 0.7% | . | -1.6% | 0.2%[46.1 µM]

# Arranged by length of the SMILES (largest number first): part of the list above.
canonical_smiles | NS1 function inh | Cruzain Triton | 2A StopGo | Marburg entry inh | RE007 growth inh | Cruzain inh noDet | SARS PLP yeast | LASV entry inh
C/C=C/C(=O)OCC(=O)Nc1ccc(C)c(S(=O)(=O)N(C)C)c1 | . | . | 30.2%[activator] | ? | -18.3% | . | -6.8% | ?
CC[N+](CC)(CC(=O)Nc1c(C)cccc1C)Cc1ccccc1 | . | 0.6% | -18.8% | . | 0.0%[18.4 µM] | -6.4% | . | .
CCOC(=O)C(Cc1ccccc1)(Cc1ccccc1)C(C)=O | -37.0% | . | -30.0% | ? | -11.7% | . | -3.7% | ?
N#Cc1cc(-c2ccccc2)nnc1Oc1ccccc1Cl | 10.4% | -4.6% | ? | ? | -20.1% | -0.9% | -2.4% | ?
